GALR2 agonist = agonists of human galanin receptor 2 (GALR2). GALR2-expressing cells, agonist activation read-out. activation, %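 (tested at 5 µM)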. hit rate 0.48% among 140,000;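 active = above mean plus 3 SD of all compounds, about 5% in these data, not always enough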;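 note: 0% = vehicle buffer wells and 100% = reference agonist at full effect; tested in CHO reporter cells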
Target sequence (O43603 whole entry, looked up): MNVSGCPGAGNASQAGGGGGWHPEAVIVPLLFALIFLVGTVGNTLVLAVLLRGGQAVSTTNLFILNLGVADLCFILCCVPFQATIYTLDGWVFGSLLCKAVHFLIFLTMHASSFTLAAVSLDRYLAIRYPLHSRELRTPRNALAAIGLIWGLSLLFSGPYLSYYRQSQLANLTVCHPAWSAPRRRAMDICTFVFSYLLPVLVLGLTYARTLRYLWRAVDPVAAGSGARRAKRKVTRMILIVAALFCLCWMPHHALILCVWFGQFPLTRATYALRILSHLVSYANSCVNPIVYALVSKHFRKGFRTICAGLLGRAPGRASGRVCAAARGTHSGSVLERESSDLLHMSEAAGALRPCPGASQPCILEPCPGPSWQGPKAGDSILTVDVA
INS promoter inh = TRM-6 insulin promoter activity inhibition. TRM-6 cells (human fetal islet line), insulin promoter-eGFP reporter, imaging; reporter expression induced with tamoxifen. inhibition, % at 2 µM. hit rate 0.9% among 130,000;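 active = inhibition above the mean plus 3 SD, with well images judged a real hit on visual review, cut at about 60% in these data, passing the limit was not always enough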
RGS16-Gao = regulators of human RGS16-Galphao interaction; bead-based flow cytometry RGS16-Galphao binding, fluorescence; actives lie on both sides; hit rate 0.38% among 220,000; O15492+P09471; AID 1441; binding response (% of control), % at 10 µM;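 active = below 25% or above 175%, edge rows of some plates excepted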;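 note: Galphao activated by GDP with aluminum fluoride before binding; 100% = wells without compound and 0% = beads without RGS; some results beyond the cut were filed as inactive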
Target sequence (O15492 whole entry, looked up): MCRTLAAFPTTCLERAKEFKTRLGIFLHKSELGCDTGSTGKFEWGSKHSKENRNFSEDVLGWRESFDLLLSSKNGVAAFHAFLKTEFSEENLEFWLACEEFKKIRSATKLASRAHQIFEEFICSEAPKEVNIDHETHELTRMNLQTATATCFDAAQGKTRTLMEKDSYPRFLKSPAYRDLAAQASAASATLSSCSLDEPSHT
Target sequence (P09471 whole entry, looked up): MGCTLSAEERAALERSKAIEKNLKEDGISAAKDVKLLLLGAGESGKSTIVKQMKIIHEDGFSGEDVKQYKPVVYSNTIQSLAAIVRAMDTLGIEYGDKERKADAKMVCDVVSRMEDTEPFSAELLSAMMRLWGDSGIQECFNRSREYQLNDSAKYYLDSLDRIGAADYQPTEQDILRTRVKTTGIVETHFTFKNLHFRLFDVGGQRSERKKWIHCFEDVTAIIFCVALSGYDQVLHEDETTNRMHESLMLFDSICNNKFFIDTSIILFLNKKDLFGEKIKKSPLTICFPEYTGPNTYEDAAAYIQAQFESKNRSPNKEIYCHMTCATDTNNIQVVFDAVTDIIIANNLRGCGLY
HSV augment = HSV replication enhancement; HSV replication augmentation in cells, fold increase; maximum fold increase; hit rate 0.005% among 220,000;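 active = peak rise of 1.5-fold or more in the series; tested in PC3 cells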;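 note: first round at 10 µM; read as green reporter fluorescence; hits show the peak of a series up to 25 µM; 1 = signal of infected wells without compound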
PKD1 kinase inh = blocks activity of human protein kinase D1. PKD1 kinase fluorescence polarization assay. inhibition, %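 (about 10 µM by stock and volumes)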. hit rate 0.056% among 200,000;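 active = inhibition of 50% or more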;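 note: controls were vehicle for no effect and a reference inhibitor for full effect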
INS promoter inh cell count = second read-out of INS promoter inh, no call of its own (marks repeat the call); normalized cell count, %; measured here: cell count, toxicity; reference of the scale not given here;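 cells exposed to compound for 48 h; stained nuclei by imaging scaled within each plate; lower means fewer cells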
HSV augment primary fold = further read-out of HSV augment, marked with its call; fold increase; compound at 10 µM; measured here: primary screen fold increase 10 uM; tested in PC3 cells;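 GFP signal in the first replicate; 1 = infected wells without compound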
An asterisk follows results filed as active; i = inactive; / = no result given.

Each structure is followed by: GALR2 agonist | INS promoter inh | INS promoter inh cell count | RGS16-Gao | HSV augment | HSV augment primary fold | PKD1 kinase inh
Cc1c(C(=O)Oc2cc(N)n(S(C)(=O)=O)n2)cccc1[N+](=O)[O-]
  / | / | / | 97 | i | 0.97 | -2
FC(F)(F)c1cccc(Oc2ccc3c(C(F)(F)F)cc(C(F)(F)F)nc3n2)c1
  -4.2 | 61 | 86 | 107 | i | 0.76 | -15
COc1cc(OC)c(C(=O)Nc2ccc(N(C)C)cc2)cc1OC
  1.0 | -7 | 147 | 101 | i | 0.89 | 3
C=C(C(=O)O)C1CCC2(C)CCCC(C)(O)C2C1 (stereo not given)
  / | / | / | 98 | i | 0.98 | /
O=C(COc1ccc(S(=O)(=O)N2CCOCC2)cc1)N1CCCCCC1
  / | / | / | 102 | i | 1.4 | 1
CCOc1cccc2cc(C(=O)N3CCN(C/C=C/c4ccccc4)CC3)c(=O)oc12
  -5.8 | -340 | 47 | 98 | i | 1 | -2
COc1ccc(C2C=C(Nc3ccccc3)C(=O)N2c2ccccc2)cc1OC (stereo not given)
  -1.6 | -7 | 150 | 86 | i | 0.95 | -13
COc1ccc(/C=C/c2nnc(NC(=O)C(C)(C)C)s2)cc1
  / | / | / | 95 | i | 1.1 | /
COc1ccc(CC(=O)NCc2csc(-c3cccs3)n2)cc1OC
  / | / | / | 98 | i | 0.74 | /
Clc1ncnc2scc(-c3ccccc3)c12
  -0.2 | 20 | 77 | 115 | i | 0.83 | 9
O=C(Nc1ccc(S(=O)(=O)N2CCCC2)cc1)c1cnccn1
  / | / | / | 92 | i | 1 | 1
Cc1nc(-c2ccccc2)sc1C1(C)CC(c2c(Cl)cccc2Cl)=NO1 (stereo not given)
  / | / | / | 90 | i | 0.93 | /
O=C(Cn1c(=O)oc2cc(S(=O)(=O)N3CCCC3)ccc21)NCc1ccc(F)cc1
  -1.7 | / | / | 103 | i | 1 | -7
Cc1cccc(Cn2ccc(NC(=O)c3cccnc3)n2)c1
  / | / | / | 102 | i | 0.92 | 3
CNC(=S)N/N=C(\C)c1ccc(-n2ccnc2)cc1
  -1.9 | -157 | 133 | 91 | i | 0.9 | -2
[O-]/C(=C(\C(=S)Nc1cccc2ccccc12)[n+]1ccccc1)c1cccs1
  / | -31 | 88 | 105 | i | 1.1 | -3
CCC(C(=O)Nc1ccc(C)cc1)c1ccccc1 (stereo not given)
  / | -45 | 82 | 107 | i | 1 | 3
CCOC(=O)NC(=O)/C(C#N)=N\Nc1cccc(OC)c1
  / | 21 | 132 | 102 | i | 0.99 | 3
CCN(Cc1cc2cc(OC)ccc2[nH]c1=O)C(=O)Cc1ccc(OC)cc1
  -0.5 | -24 | 194 | 65 | i | 0.95 | -4
CCOC(=O)c1nnn(-c2nonc2N)c1-c1ccc(C)cc1
  -1.1 | -34 | 76 | 111 | i | 1 | -2
CC(=O)c1cn(CC(=O)Nc2ccc(C)c(C)c2)c2ccccc12
  / | i | 62 | 108 | i | 1 | 6
CCOc1ccc(-c2nc(-c3cccs3)c(CC(=O)O)s2)cc1OC
  / | -50 | 114 | 107 | i | 0.86 | -3
O=C(CCN1C(=O)C2C3C=CC(C3)C2C1=O)N1CCN(c2ccccc2F)CC1 (stereo not given)
  -0.8 | / | / | 100 | / | / | -2
CCN1C(c2ccccc2)=C(c2ccccc2)S/C1=C/C=C1\SC(=S)N(C)C1=O
  -2.9 | -31 | 82 | 92 | / | / | 0
CCOc1ccc2nc(Cl)c(C3CC(c4ccco4)=NN3S(C)(=O)=O)cc2c1 (stereo not given)
  / | / | / | 104 | i | 0.93 | /
O=C(CSc1nnc(-c2ccccn2)n1-c1ccccc1)Nc1ccc2c(c1)OCO2
  -1.6 | -9 | 149 | 102 | i | 1 | -1
CCCOC(=O)c1ccc(NS(=O)(=O)c2cccs2)cc1
  -0.6 | 14 | 97 | 99 | i | 0.88 | 12
CN(C)c1ccc(C(=O)N2CCCC2)cc1
  / | / | / | 103 | i | 0.88 | -1
O=C(C1CCCO1)N1CCN(C(=S)Nc2ccc(F)cc2)CC1 (stereo not given)
  -0.5 | 3 | 75 | 13 | i | 1.1 | -12
COc1cc(-c2noc(CCC(=O)Nc3cccnc3)n2)cc(OC)c1OC
  -2.2 | 17 | 84 | 106 | i | 0.97 | 11
CCOC(=O)C(C#N)C(Cc1ccccc1)c1ccco1 (stereo not given)
  0.0 | 24 | 108 | 101 | i | 0.97 | -5
O=C(CSC1=NCCS1)Nc1cccc2ccccc12
  -0.1 | -87 | 73 | 102 | / | / | -7
O=C(CC1SC(N2CCCCC2)=NC1=O)Nc1cccc(C(=O)O)c1 (stereo not given)
  -1.1 | 30 | 89 | 102 | i | 0.95 | 3
COc1ccc(CSc2nnc(C)n2N)cc1[N+](=O)[O-]
  / | / | / | 82 | i | 1 | -7
CCCCCCN(C(=O)CCCCCN1C(=O)NC(c2ccc(-c3ccccc3)cc2)C(C(=O)OCc2ccccc2)=C1C)C(C(=O)NCCCC)C1CCCCC1 (stereo not given)
  / | / | / | 99 | i | 0.84 | /
CCN(CC)S(=O)(=O)c1ccc(Cl)c(OC)c1
  -1.2 | 12 | 93 | 103 | i | 1.1 | -2
NC(=O)NOCc1ccc(Cl)cc1Cl
  / | / | / | 96 | i | 0.99 | -5
CC(=O)OCC(=O)Nc1ccc([N+](=O)[O-])cc1Cl
  / | / | / | 104 | i | 1 | -2
O=C(Nc1ccccc1Cl)c1ccccc1Cc1ccccc1
  -2.0 | / | / | 103 | i | 1.1 | 8
CS/C(=N\S(=O)(=O)c1ccc(Cl)cc1)c1ccccc1
  -2.2 | 46 | 119 | 102 | i | 0.84 | -7
O=C(CCc1ccccc1)NC1CCSC1=O (stereo not given)
  -0.8 | / | / | 95 | i | 0.95 | -4
CC(C)CSc1nc2ccccc2c(=O)[nH]1
  -1.1 | 13 | 64 | 153 | i | 0.89 | -1
Cc1ccc2c(c1)C1CN(C)CCC1N2C(=O)COc1ccc(N(C)C(=O)C(C)(C)C)cc1 (stereo not given)
  / | / | / | 100 | i | 1 | 5
COc1ccccc1N1CCN(C(=O)c2n[nH]c3ccccc23)CC1
  / | 75* | 152* | 101 | i | 0.87 | -2
CCCCCC1NC(=O)NC1CCCCCC(=O)O (stereo not given)
  2.2 | 24 | 27 | 101 | i | 0.98 | -5

Whole records, looked up by structure. Order of screens: GALR2 agonist	INS promoter inh	INS promoter inh cell count	RGS16-Gao	HSV augment	HSV augment primary fold	PKD1 kinase inh
Record of COc1ccc(CSc2nnc(C)n2N)cc1[N+](=O)[O-] → /	/	/	82	i	1	-7
Record of O=C(CCc1ccccc1)NC1CCSC1=O (stereo not given) → -0.8	/	/	95	i	0.95	-4
Record of CC(=O)OCC(=O)Nc1ccc([N+](=O)[O-])cc1Cl → /	/	/	104	i	1	-2
Record of O=C(Nc1ccccc1Cl)c1ccccc1Cc1ccccc1 → -2.0	/	/	103	i	1.1	8

More entries follow:
Each structure is followed by: GALR2 agonist | INS promoter inh | INS promoter inh cell count | RGS16-Gao | HSV augment | HSV augment primary fold | PKD1 kinase inh
c1coc(CN(Cc2ccco2)c2ncnc3c2oc2ccccc23)c1
  8.9 | 0 | 138 | 111 | i | 0.73 | 0
Cc1cc(NC(=O)CSc2nnc(-c3ccco3)n2Cc2ccco2)no1
  -0.6 | -35 | 105 | 94 | i | 1.2 | 1
C=CC(C)N1C(=O)S/C(=C\c2ccc(N3CCOCC3)cc2C)C1=O (stereo not given)
  -0.4 | 41 | 100 | 111 | i | 1.2 | -2
CC(C)(CO)NC(=O)C12CC3CC(CC(Br)(C3)C1)C2
  / | / | / | 83 | i | 1.1 | /
CCOc1ccc(CCNC(=O)C(O)c2ccccc2)cc1 (stereo not given)
  -0.6 | 18 | 123 | 40 | i | 0.9 | -1
CCOCCCN(C(=O)Cn1nnc(-c2ccc(OC)c(OC)c2)n1)C(CC)C(=O)NC1CCCC1 (stereo not given)
  / | -36 | 84 | 87 | i | 0.93 | -3
CN(C(=O)COC(=O)c1ccc([N+](=O)[O-])cc1Cl)C1CCCCC1
  / | 50 | 128 | 98 | i | 0.94 | -2
CCOc1ccccc1N(CC(=O)Nc1ccccc1C(=O)NCc1ccco1)S(C)(=O)=O
  -1.5 | -180 | 96 | 98 | i | 0.92 | -2
Cn1cc(CN2CCCC(C(=O)c3cc(F)ccc3F)C2)c2ccccc21 (stereo not given)
  / | / | / | 101 | i | 0.96 | 2
Cc1c(CCOC(=O)c2cc([N+](=O)[O-])ccc2Cl)sc[n+]1CCCCS(=O)(=O)[O-]
  / | / | / | 103 | i | 1 | 4
CCc1ccccc1SCc1noc(C(=O)NCC2CCCO2)c1C(=O)O (stereo not given)
  -1.4 | 43 | 117 | 101 | i | 1.2 | -8
O=C(Nc1nn[nH]n1)C12CC3CC(CC(C3)C1)C2
  -3.4 | 31 | 93 | 102 | i | 0.84 | -7
Cn1c(=O)oc2cc(S(=O)(=O)NCCCN3CCCC3=O)ccc21
  -4.2 | / | / | 104 | i | 0.99 | 9
CC1(C)N=C(N)N=C(N)N1c1cccc(C(=O)O)c1
  -0.8 | -25 | 150 | 119 | i | 0.95 | 6
CCOC(=O)CCc1c(C)c2ccc(OCc3ccc([N+](=O)[O-])cc3)cc2oc1=O
  -0.7 | 27 | 172 | 100 | i | 1 | 8
CCN(C(=O)COC(=O)C1CCN(S(=O)(=O)c2cccs2)CC1)c1ccccc1
  / | / | / | 105 | i | 0.96 | 1
CCOC(=O)c1ccc(NC(=O)c2cc(=O)[nH]c3ccccc23)cc1
  / | / | / | 102 | i | 0.77 | -7
COCCCNC(=S)Nc1cc(C)c(C)cc1C
  / | / | / | 102 | i | 0.81 | /
OCCC1CN(Cc2cccnc2)CCN1CCc1ccccc1 (stereo not given)
  / | / | / | 97 | i | 1 | -2
CCOc1ccccc1N1CN(Cc2ccccc2)CNC1=S
  / | / | / | 100 | i | 0.99 | /
CCOC(=O)Cn1nc(-c2ccc(Cl)cc2)cc1N
  -0.9 | -25 | 88 | 103 | i | 0.7 | -2
CNS(=O)(=O)c1cccc(C(=O)OCc2csc(-c3ccccc3)n2)c1
  -1.1 | -38 | 91 | 103 | i | 0.91 | 6
COc1ccc(CCNC(=O)C2CCN(S(=O)(=O)c3ccc(-n4cnnn4)cc3)CC2)cc1OC
  -1.4 | 0 | 88 | 83 | i | 0.93 | 1
CCCCNC(NCCCC)=C(S(=O)(=O)CC)S(=O)(=O)CC
  -0.8 | / | / | 104 | i | 0.9 | 6
Cc1cc2cc(C=C(C#N)C#N)c(Cl)nc2cc1C
  -2.3 | 7 | 106 | 99 | i | 1.6 | -2
CCOc1ccc(CCNC(=O)CSc2nn(-c3ccc(C)c(Cl)c3)c(=S)s2)cc1OCC
  0.9 | / | / | 97 | i | 0.92 | 3
CC(C)c1nc(N2CCN(C(=O)c3ccco3)CC2)c2c3c(sc2n1)CCCC3
  -0.2 | 39 | 156 | 104 | i | 1 | 7
COc1ccc(/C(C)=N/N=C(N)N)c(OC)c1
  / | / | / | 99 | i | 0.85 | /
COCCSc1ccccc1C(=O)N1CCc2ccccc2C1
  / | / | / | 96 | i | 1 | 5
Clc1cc2cccnc2c2ccccc12
  -0.2 | -15 | 74 | i | i | 1.1 | 9
CC12CCC(=O)N1c1ccccc1C(=O)N2c1ccccc1 (stereo not given)
  -0.9 | 19 | 142 | 109 | i | 0.98 | 2
N#CN=C1SCCS1
  -3.6 | 10 | 82 | 105 | i | 0.9 | 0
O=C1c2cccc3c([N+](=O)[O-])ccc(c23)C(=O)N1CC1CCCO1 (stereo not given)
  / | -493 | 78 | 100 | / | / | -8
Cc1oc(-c2ccc3c(c2)OCCO3)cc1C(=O)O
  -0.7 | 12 | 122 | 93 | i | 0.85 | -16
Cc1ccc(-c2nn3c(C)nnc3c3ccccc23)cc1S(=O)(=O)NC(C)(C)CO
  / | / | / | 109 | i | 0.81 | -7
c1ccc(CN2CCN(c3ncccn3)CC2)nc1
  -1.3 | / | / | / | / | / | 11
CC(=O)Nc1nc(C)c(CCC2OCCO2)c(=O)[nH]1
  / | / | / | 100 | i | 1 | /
COc1ccc2c(C(=O)CN3CCN(CCO)CC3)c[nH]c2c1
  -1.1 | / | / | 115 | i | 0.7 | 2
O=C(NNC(=O)c1cccs1)c1ccco1
  / | / | / | 102 | i | 1.2 | -3
COc1ccc(NC(=O)C2CCC(CNc3c(N4CCCCC4)c(=O)c3=O)CC2)cc1OC (stereo not given)
  -1.9 | / | / | 102 | i | 0.82 | -9
O=C(CN1c2ccccc2Sc2ccccc21)NNC(=S)Nc1ccc(Cl)cc1
  / | / | / | 103 | i | 0.96 | /
Cc1ccc(OCCCn2c(=O)sc3ccccc32)cc1
  -0.2 | -28 | 132 | 97 | i | 0.84 | -3
CCCCNC(=O)OC(C)CNC(=O)OC (stereo not given)
  -1.6 | / | / | 100 | i | 0.98 | -2
Cc1cc(=O)oc2cc(OC(C)C)ccc12
  -0.7 | / | / | 101 | i | 0.98 | -11
Cn1c(=O)c2c(nc(N3CCN(C(=O)c4ccco4)CC3)n2CCSc2ncccn2)n(C)c1=O
  / | / | / | 106 | i | 1.1 | -4

From PubChem
